VDR inhibitor: vitamin D3 receptor (human) inhibition; P11473; VDR-SRC2-3 peptide fluorescence polarization, 2 h; Potency, µM, for the others: max response, negative = inhibition, usual class: inhibitors; 400,000 tested, 0.93% active; active = well fitted inhibition curve with a large enough effect; inconclusive = small, poorly fitted or top-dose-only effect, or another doubt; inactive = no such curve, though single readings can be large or run the other way; also: series mostly up to about 120 µM
Target sequence (P11473 whole entry, looked up): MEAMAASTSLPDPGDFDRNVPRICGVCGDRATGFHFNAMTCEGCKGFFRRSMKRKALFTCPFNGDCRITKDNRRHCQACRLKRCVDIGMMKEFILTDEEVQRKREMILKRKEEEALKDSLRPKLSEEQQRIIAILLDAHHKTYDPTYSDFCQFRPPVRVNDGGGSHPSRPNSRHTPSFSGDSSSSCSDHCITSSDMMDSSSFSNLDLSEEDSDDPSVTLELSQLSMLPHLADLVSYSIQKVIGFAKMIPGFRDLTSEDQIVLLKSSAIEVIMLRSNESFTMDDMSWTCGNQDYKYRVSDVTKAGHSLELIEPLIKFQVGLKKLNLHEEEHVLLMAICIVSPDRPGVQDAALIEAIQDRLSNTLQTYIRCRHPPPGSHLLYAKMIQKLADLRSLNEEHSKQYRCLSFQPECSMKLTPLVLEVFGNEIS
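Two reagent solutions held at 4 deg C in the dark were dispensed, compounds pinned at 23 nl, and the mixture incubated 2 h at room temperature. Read-out: fluorescence polarization of VDR–SRC2-3 peptide binding.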
Active calls of the source: *; ? = inconclusive. % is scaled to controls: 0 for no effect and ±100 for the full control effect; potency is read from the fitted curve at half-maximal effect. Not all compounds are listed; the hit share may differ from the screen's.

SMILES	VDR inhibitor
COC(=O)c1cccc(C23CC4(C2)[C@H](CN(Cc2cccnc2)[C@@H]4c2ccccc2)C3c2ccc(C(F)(F)F)cc2)c1 (some centres not stated)	-21%
CNC(=O)c1csc(-c2ccncc2)n1	1%
CC(C)CCn1c(CN2CCN(Cc3ccccc3)CC2)nc2c1c(=O)[nH]c(=O)n2C	-14%
Fc1ccc(Nc2nnns2)cc1	79µM*
C/C(=N\O)C(=O)NCCCn1ccnc1	-5%
O=C(O)c1cccc(S(=O)(=O)Nc2ccccc2C(=O)NCCc2ccccc2)c1	6%
COc1ccc(CCC(=O)NCCc2csc(-c3ccc(Cl)cc3)n2)cc1	7%
O=S(=O)(c1ccc(C(F)(F)F)cc1)N1CCCN(c2ccc(C(F)(F)F)cn2)CC1	-4%
CC(C)(CN1CCC(Cc2ccccc2)CC1)NS(=O)(=O)c1ccccc1	-13%
COc1ccc(C(=O)Nc2c(C)ccc3nsnc23)cc1[N+](=O)[O-]	1%
CCC1=NN(C(=O)COc2ccccc2)C(O)(c2ccncc2)C1 (configuration not stated)	7%
COc1cccc(NC(=O)CN(Cc2ccccc2)S(C)(=O)=O)c1	19%
COc1ccc(-c2[nH]ncc2/C=N/NC(=O)c2ccncc2)c(OC)c1	-14%
Cc1onc(-c2cccc(Cl)c2Cl)c1C(=O)O/N=C(\N)c1ccc([N+](=O)[O-])o1	8%
CC1(C(=O)NCc2ccccn2)C=CCN1C(=O)c1ccccc1 (configuration not stated)	0%
O=[N+]([O-])c1ccc(Cc2nnc(-c3ccc(F)cc3)o2)cc1	-3%
CC1=C(C(=O)OC(C)C)C(c2cccc([N+](=O)[O-])c2)C(C(=O)OC2CN(C(c3ccccc3)c3ccccc3)C2)=C(N)N1 (configuration not stated)	12%
CC(=O)c1cccc(NC(=O)CSc2nc(=O)n(Cc3ccccn3)c3c2CCC3)c1	3%
O=C(NCc1ccccc1)c1ccccc1Br	-23%
CCC1(N(C(C)=O)c2ccc(OC)cc2)C(=O)c2ccccc2C1=O	16%
CCN(CC)S(=O)(=O)c1ccc(S(=O)(=O)N2CCC(C(=O)NC3CCN(Cc4ccccc4)CC3)CC2)cc1	-6%
COc1cc(C(=O)C(O)c2ccc(O)c(OC)c2)ccc1O (configuration not stated)	1%
COc1ccc(NC(=O)CN(C)CC(=O)Nc2ccc(Cl)cc2F)cc1	-1%
CC(C)CC1NC(=O)N(CC(=O)Nc2cc(F)ccc2F)C1=O (configuration not stated)	11%
COc1ccc(-n2ccn(Cc3ccc(C)cc3)c(=O)c2=O)cc1OC	0%
COc1ccc(CCC(=O)NC2CC(=O)N(c3cccc(F)c3)C2)cc1 (configuration not stated)	17%
Cc1ccc(S(=O)(=O)CCC(=O)OCc2ccc(Cl)cc2)cc1	1%
Cc1ccc(C(=O)NC(C)c2nnc(SCC(=O)NC3CCCC3)n2C)cc1 (configuration not stated)	0%
COc1ccccc1CC(=O)Nc1ccc(S(=O)(=O)N(C)C2CCN(C)CC2)cc1	-2%
O=C(CCCN1C(=O)c2cccc3cccc(c23)C1=O)NCCN1CCOCC1	-7%
CC(=O)c1ccc(NC(=O)c2ccn(C(=O)OCC(C)C)n2)cc1	-1%
NS(=O)(=O)c1ccc(NC(=O)c2ccc(COc3ccccc3)o2)cc1	-20%
Cc1cc(C)cc(-n2c(SCC(N)=O)nc3c([nH]c4ccccc43)c2=O)c1	-1%
Cc1cc(C)nc(/N=C2/NC(=O)CS2)n1	?
O=C(COC(=O)c1cccc2ccccc12)Nc1cccnc1Cl	-26%
CCOCCn1c(N2CCCC2)nc2c1c(=O)[nH]c(=O)n2C	-9%
Cc1cc(C(=O)Nc2nc3c(s2)CCCC3)cs1	9%
Cc1ccc(CN(Cc2cc3cc4c(cc3[nH]c2=O)OCCO4)Cc2nnnn2Cc2ccco2)cc1	?
COc1ccc(N2C(=O)CC(N(C)CCc3ccc(OC)c(OC)c3)C2=O)cc1 (configuration not stated)	0%
CCc1ccc(C(=O)COC(=O)CNC(=O)c2ccc(Br)o2)cc1	-3%
CCOC(=O)C1CCN(c2ccc(Cl)nn2)CC1	3%
Cc1ccc2cccc(NC(=O)C(C)Oc3ccc(C)c(C)c3)c2n1 (configuration not stated)	11%
CC(C(=O)NC1CCCCC1)N1CCN(C)CC1 (configuration not stated)	-7%
O=C(C(Cc1ccccc1)N1C(=O)C2C3C=CC(C3)C2C1=O)N1CCCCC1 (configuration not stated)	1%
COc1ccc(NC(=O)CCCCCn2nnc3ccccc3c2=O)cc1OC	-20%
COc1ccccc1NC(=O)CSc1ccc(-c2ccc(-n3ccnc3)cc2)nn1	-4%
O=C1CCC/C(=N/NC(=O)C2CCN(S(=O)(=O)c3cccs3)CC2)C1	10%
CCCOc1ncnc2c1sc1nc3c(cc12)COC(C)(C)C3	-8%
Cc1cccc(NC(=O)NC(C)C(c2cccs2)N2CCOCC2)c1 (configuration not stated)	-6%
CCc1ccc(C(=O)COC(=O)c2cc([N+](=O)[O-])ccc2N2CCOCC2)cc1	-1%
COc1cc(-c2cc(C(=O)Nc3cccc(C(C)=O)c3)c3ccccc3n2)cc(OC)c1OC	-3%
CCOC(=O)c1nc(-c2ccccc2)oc1N(C)C	9%
CCN(CC)CCC#CC(O)(c1ccccc1)c1ccccc1	-5%
CCOc1ccc(N2CC(C(=O)Nc3ccc(N4CCOCC4)cc3)CC2=O)cc1 (configuration not stated)	6%
CC(=O)c1ccc(NC(=O)c2onc(C)c2Cl)cc1	5%
CC(c1ccon1)N(C)Cc1cn[nH]c1-c1ccc(F)cc1F (configuration not stated)	0%
COc1ccc(-c2[nH]ncc2CN(C)C(C)c2cccs2)c(F)c1 (configuration not stated)	0%
Cc1ccc(S(=O)(=O)N2CCN(C(=O)COc3ccc(NC(=O)c4ccco4)cc3)CC2)cc1	-24%
O=C(COC(=O)/C=C/c1ccccc1)Nc1ccc(Cl)cn1	7%
CCOC(=O)C1CCCCN1C(=O)CCc1c(C)nc2cc(-c3ccccc3)nn2c1C (configuration not stated)	-20%
(list continues)
SMILES	VDR inhibitor
CCn1c(SCC(=O)Nc2nc(C)cs2)nnc1-c1ccncc1	1%
CC(C)Cc1nn2c(=O)cc(O)nc2s1	-5%
CCCC(=O)NC1CCCc2c1cnn2-c1ccc(C)c(C)c1 (configuration not stated)	-4%
CCN(C(=O)CSc1ncn[nH]1)c1c(N)n(Cc2ccccc2)c(=O)[nH]c1=O	14%
Cc1cc(C)nc(OC(C(=O)O)C(OCC(C)C)(c2ccccc2)c2ccccc2)n1 (configuration not stated)	-10%
CCN(CC)S(=O)(=O)c1ccc(Cl)c(NC(=O)COC(=O)c2cccn2C)c1	-12%
COc1ccc(-c2cc3cc(OC)c(OC)cc3c(C)n2)cc1C	-17%
O=C(N/N=C/C=C/c1ccccc1)c1ccncc1	-18%
Cc1cc(OCCOCCN2CCCC2)ccc1C(C)C	-6%
Cc1cc(C)nc(SCc2cccc(C(=O)O)c2)n1	6%
CCCN(CCC)CCNC(=O)c1sc2nc3n(c(=O)c2c1C)CCCCC3	0%
Cc1nc(C)c(CCNC(=O)c2ccccc2)s1	-7%
CCOC(=O)CNC(=O)c1ccc(-c2nn(C)c(=O)c3ccccc23)cc1	-14%
COc1cnc(-c2ccccn2)nc1NC(C)C	-11%
COc1ccc(C(=O)OCC(=O)c2c(N)n(C)c(=O)n(C)c2=O)c(OC)c1OC	-5%
Cc1ccc(S(=O)(=O)CCc2nnc(NC(=O)C3CCCCC3)s2)cc1	5%
Cc1c(Cl)cccc1N/C(SCC(=O)N1CCCCCC1)=C(/C#N)c1nc2ccccc2s1	14%
Cc1cc(C)c(S(=O)(=O)Nc2nnc(C(C)C)s2)c(C)c1	-11%
O=C(CCCCCNC(=O)c1ccccc1)N/N=C/c1ccccc1O	-10%
CCn1cc(Br)c(C(=O)NCc2ccco2)n1	-7%
CCN(CC)S(=O)(=O)c1ccc(NC(=O)c2cc(-c3cccs3)nc3ccccc23)cc1	-12%
CN1CCN(C(=O)CCc2ccc(S(=O)(=O)NC3CCCCC3)cc2)CC1	6%
CC(C)COc1cccc(C(=O)Nc2ccc(N3CCOCC3)cc2N2CCOCC2)c1	11%
Nc1nc(-c2ccc(Cl)cc2)nn1C(=O)c1cccs1	17%
CCNC(=S)N(Cc1ccc2c(c1)OCO2)C1CC(=O)N(c2ccc(OC)cc2)C1=O (configuration not stated)	1%
O=C(N1CCOCC1)C1(c2ccccc2)CCCCC1	-13%
CC(C)N=c1scc(-c2cccs2)n1/N=C/c1ccc(O)c(O)c1O	12%
O=C(Cc1ccccc1F)Nc1cccc2cccnc12	-3%
Cc1c(C#N)c(O)[nH]c(=O)c1N=Nc1ccc(S(N)(=O)=O)cc1	3%
COc1ccc(CCNC(=O)Cn2cnc3c(nnn3Cc3ccccc3F)c2=O)cc1OC	-5%

In a second layout: 18 of the compounds above
Compound,VDR inhibitor
CCOC(=O)CNC(=O)c1ccc(-c2nn(C)c(=O)c3ccccc23)cc1,-14%
COc1cnc(-c2ccccn2)nc1NC(C)C,-11%
COc1ccc(C(=O)OCC(=O)c2c(N)n(C)c(=O)n(C)c2=O)c(OC)c1OC,-5%
Cc1ccc(S(=O)(=O)CCc2nnc(NC(=O)C3CCCCC3)s2)cc1,5%
Cc1c(Cl)cccc1N/C(SCC(=O)N1CCCCCC1)=C(/C#N)c1nc2ccccc2s1,14%
Cc1cc(C)c(S(=O)(=O)Nc2nnc(C(C)C)s2)c(C)c1,-11%
O=C(CCCCCNC(=O)c1ccccc1)N/N=C/c1ccccc1O,-10%
CCn1cc(Br)c(C(=O)NCc2ccco2)n1,-7%
CCN(CC)S(=O)(=O)c1ccc(NC(=O)c2cc(-c3cccs3)nc3ccccc23)cc1,-12%
CN1CCN(C(=O)CCc2ccc(S(=O)(=O)NC3CCCCC3)cc2)CC1,6%
CC(C)COc1cccc(C(=O)Nc2ccc(N3CCOCC3)cc2N2CCOCC2)c1,11%
Nc1nc(-c2ccc(Cl)cc2)nn1C(=O)c1cccs1,17%
CCNC(=S)N(Cc1ccc2c(c1)OCO2)C1CC(=O)N(c2ccc(OC)cc2)C1=O (configuration not stated),1%
O=C(N1CCOCC1)C1(c2ccccc2)CCCCC1,-13%
CC(C)N=c1scc(-c2cccs2)n1/N=C/c1ccc(O)c(O)c1O,12%
O=C(Cc1ccccc1F)Nc1cccc2cccnc12,-3%
Cc1c(C#N)c(O)[nH]c(=O)c1N=Nc1ccc(S(N)(=O)=O)cc1,3%
COc1ccc(CCNC(=O)Cn2cnc3c(nnn3Cc3ccccc3F)c2=O)cc1OC,-5%

More entries
SMILES	VDR inhibitor
CC(=O)c1ccc(Nc2nc3ccccc3nc2NS(=O)(=O)c2cccs2)cc1	-26%
COc1ccc(C(C)C)cc1S(=O)(=O)n1cnc(C)c1	3%
COC(=O)[C@]1(Cc2ccccc2)N[C@H](CN(C)C(=O)C2CCCCC2)[C@@H]2C(=O)N(Cc3ccccc3)C(=O)[C@@H]21	10%
CCN(CC(=O)Nc1c(F)cccc1F)C(=O)CCCc1c[nH]c2ccccc12	-4%
Cc1nn(-c2ccccc2)c(N)c1C(O)(CSc1nccn1C)C(F)(F)F (configuration not stated)	-18%
ClC1CCCCC1n1nnc2ccccc21 (configuration not stated)	-19%
COC(=O)c1ccc(-c2ccc(/C=N/N3C(=O)C4C5C=CC(CC5)C4C3=O)o2)cc1 (configuration not stated)	-3%
O=C(COC(=O)/C=C/c1ccc([N+](=O)[O-])cc1)NC(=O)NC1CCCCC1	-3%
O=C(COC(=O)C12CC3CC(CC(C3)C1)C2)Nc1ccccc1F	-22%
N#Cc1ccc(-c2nc3cc(Cl)ccc3c(=O)n2O)cc1	2%
COCCNC(=O)C(c1ccc(C)cc1)N(C(=O)CCC(=O)Nc1ccccn1)c1cccc(C)c1 (configuration not stated)	13%
CCCC(=O)C1=C(O)C(C(=O)OC)C(C)(C)CC1=Nc1ccc(OC)cc1 (configuration not stated)	9%
CCCOc1ccc(/C=C2\SC(=S)N(CC3CCCO3)C2=O)cc1 (configuration not stated)	-14%
O=C(CSc1nnc(CNC(=O)c2ccc(F)cc2)o1)Nc1nccs1	-13%
COCCSc1nnc(NC(=O)c2cc(C(=O)OC)cc([N+](=O)[O-])c2)s1	-14%
COc1ccc(/C=C/C(=O)NC(=S)N2CCCC(C(N)=O)C2)cc1 (configuration not stated)	-7%
COc1cc2[nH]c3c(=O)n(CCN4CCOCC4)cnc3c2cc1OC	-23%
COc1ccc(NC(=O)c2ccc(CNc3c(N4CCCC4)c(=O)c3=O)cc2)cc1Cl	-2%
CCCC1(c2ccccc2)NC(=O)N(CC(=O)Nc2ccc(N3CCOCC3)cc2)C1=O (configuration not stated)	-5%
Cc1ccc(C)c(NC(=O)CCC(=O)NNS(=O)(=O)c2ccc(Cl)cc2)c1	-7%
CC(=O)c1ccc(N2C(=O)Nc3ccccc3S2(=O)=O)cc1	14%
COc1ccccc1C(=O)NC(CCSC)C(=O)NCC(c1ccccc1OC)N1CCCC1 (configuration not stated)	-13%
COC(=O)c1cc2occc2n1CC(=O)Nc1ccc(C(C)C)cc1	-22%
N#CCCSCc1ccc(OCC(=O)O)cc1	-29%
O=C(Nc1ccc2oc(=O)ccc2c1)c1ccco1	25%
c1ccc(Nc2nn[nH]n2)cc1	2%
O=C(Nc1ccc(Cl)cc1)c1cccc(S(=O)(=O)Nc2ccccn2)c1	-4%
O=C(CN1CCN(c2ccccc2F)CC1)NCc1ccc(Cl)cc1	1%
Cc1ccc(C(c2nnnn2C2CCCC2)N2c3ccccc3CC2C)cc1 (configuration not stated)	-9%
COc1ccc(CCN(C)Cc2nc(Cc3ccc(OC)c(OC)c3)no2)cc1OC	-24%
Cc1ccc(C(=O)NCC(=O)OCC(=O)c2ccccc2)s1	3%
Cc1ccc(-c2nnn(CC(=O)N(CCCO)C(C(=O)NC3CCCC3)c3ccc(F)cc3)n2)o1 (configuration not stated)	6%
Cc1ccc(NN2C(=O)C=C(c3ccc(Cl)cc3)C2=O)cc1	50µM*
Cc1cccc(NC(=O)CN2C(=O)CSc3ccc(S(=O)(=O)N4CCCC4)cc32)c1C	8%
